VDR inhibitor = vitamin D3 receptor (human) inhibition; P11473; VDR-SRC2-3 peptide fluorescence polarization, 2 h; Potency, µM, without a hit: max response, negative = inhibition, most hits filed as inhibitors; actives 0.93% (n = 400,000); active = well fitted inhibition curve with a large enough effect; inconclusive = small, poorly fitted or top-dose-only effect, or another doubt; inactive = no such curve, though single readings can be large or run the other way; note: series mostly up to about 120 µM
Target sequence (P11473 whole entry, looked up): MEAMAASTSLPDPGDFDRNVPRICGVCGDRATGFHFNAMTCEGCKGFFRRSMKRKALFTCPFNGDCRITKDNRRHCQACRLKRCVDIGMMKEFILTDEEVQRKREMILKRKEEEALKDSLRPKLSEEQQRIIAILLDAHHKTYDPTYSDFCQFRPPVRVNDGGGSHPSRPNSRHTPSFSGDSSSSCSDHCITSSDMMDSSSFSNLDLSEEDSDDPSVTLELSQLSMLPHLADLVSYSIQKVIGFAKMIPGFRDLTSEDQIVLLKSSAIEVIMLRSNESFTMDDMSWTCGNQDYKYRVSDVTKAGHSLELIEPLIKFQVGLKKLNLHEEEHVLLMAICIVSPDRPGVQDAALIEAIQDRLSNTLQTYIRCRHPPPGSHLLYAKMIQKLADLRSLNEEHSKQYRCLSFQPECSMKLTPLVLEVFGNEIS
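FP read-out; VDR + SRC2-3 coactivator peptide; 23 nl compound by pintool; 2 h RT incubation; reagents held at 4 deg C, protected from light.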
* = called active by the depositor; ? = inconclusive; & = joins results of further samples; [ ] = remark or other dose. % is set by controls: 0 for no effect and ±100 for the full control effect; potency is the fitted concentration of half-maximal effect. Only part of the results is shown; rates above refer to the full screens.

SMILES	VDR inhibitor
COC(=O)c1ccccc1C(=O)N(Cc1cccnc1)CC1CCCN(C2CCCCC2)C1 (stereo not drawn)	10%
CCOc1ccccc1NC(=O)N(Cc1ccc(F)cc1)C1CCN(CC)CC1	14%
CCn1c(SCC(=O)c2ccc(Br)cc2)nnc1C(C)NC(=O)Cc1ccc(OC)cc1 (stereo not drawn)	-13%
COc1cnc(-c2ccccn2)nc1Sc1ccc(C)cc1	0%
Cc1ccc(C2=NS(=O)(=O)N(C)C(C(=O)N3CCOCC3)=C2)cc1	1%
CCN(CC)Cc1c(C(=O)N/N=C/c2cccs2)nnn1-c1nonc1N	2%
O=C(N/C(=C/c1cccnc1)C(=O)N1CCOCC1)c1ccccc1Cl	-6%
COc1ccc(OC)c(C2c3c(oc4ccccc4c3=O)C(=O)N2CCCN(C)C)c1 (stereo not drawn)	-5%
Cc1ccc(-c2nc(CS(=O)(=O)CC(=O)N3CCc4ccccc4C3)c(C)o2)cc1	-15%
COc1ccc(OC)c(NS(=O)(=O)c2ccc3c(c2)C(C)(C)C(=O)N3C)c1	2%&9%

Brought forward from above: 2 entries, followed by the next part.
SMILES	VDR inhibitor
Cc1ccc(-c2nc(CS(=O)(=O)CC(=O)N3CCc4ccccc4C3)c(C)o2)cc1	-15%
COc1ccc(OC)c(NS(=O)(=O)c2ccc3c(c2)C(C)(C)C(=O)N3C)c1	2%&9%
CCOc1ccccc1N(CC(=O)NC1CCCCC1)S(=O)(=O)c1ccccc1	-2%
CCOC(=O)COc1ccccc1/C=C1/NC(=O)NC1=O	1%
CCOC(=O)Oc1c(OC)cc(C(=O)O[C@H]2C[C@H]3CN4CCc5c([nH]c6cc(OC)ccc56)[C@@H]4C[C@H]3[C@@H](C(=O)OC)[C@@H]2OC)cc1OC	-4%
CCOC(=O)c1cnc2ccccc2c1NCCO	-5%
Cc1cc(C(=O)NC2CCCc3c2cnn3-c2ccccc2F)nc(C)n1 (stereo not drawn)	-14%
O=C(OCC(=O)N1CCCC1)c1cc([N+](=O)[O-])ccc1Cl	9%
COC(=O)CCC(=O)N1CCc2cc(S(=O)(=O)N3CCN(c4ccccc4Cl)CC3)ccc21	-3%
O=C(Cc1c(F)cccc1Cl)NNC(=O)c1ccncc1	15%
N#Cc1ccc(-c2nc3ccc(Br)cc3c(=O)n2O)cc1	16%
O=C(Nc1ccccc1F)C1CCN(S(=O)(=O)c2ccc3c(c2)CCCN3C(=O)C2CCC2)CC1	4%

A few values from the list:
VDR inhibitor with `O=C(N/C(=C/c1cccnc1)C(=O)N1CCOCC1)c1ccccc1Cl` is entered as -6%
VDR inhibitor with `O=C(Cc1c(F)cccc1Cl)NNC(=O)c1ccncc1` is entered as 15%
VDR inhibitor with `COc1ccc(OC)c(NS(=O)(=O)c2ccc3c(c2)C(C)(C)C(=O)N3C)c1` is entered as 2%&9%
VDR inhibitor with `COC(=O)CCC(=O)N1CCc2cc(S(=O)(=O)N3CCN(c4ccccc4Cl)CC3)ccc21` is entered as -3%

The listing continues:
SMILES	VDR inhibitor
CC(C)CN1CCC(=O)N(CCC#N)CC1	-11%
Cc1cc(C(=O)N/N=C/C(Cl)=C/c2ccccc2)c(C)o1	-12%
CC(=O)c1ccc(NC(=S)NC(=O)/C=C/c2ccc(F)cc2)cc1	2%
N#Cc1sc2nc(-c3cccs3)cc(-c3ccc(F)cc3)c2c1N	-10%
O=C(c1cccc(F)c1)N1CCN(C(=O)c2cc3nc(-c4ccco4)cc(C(F)(F)F)n3n2)CC1	-20%
CCOC(=O)COc1ccc2c(c1)c(C(C)=O)c(C)n2-c1ccc(OC)cc1	-9%
Cc1ccccc1CNC(=O)c1ccc(NC(=O)N2CCCCc3ccccc32)cc1	-4%
CCc1nc(-c2ccc(C)nc2OC)no1	4%
Cc1ccc(NC(=O)CSc2nnc(-c3cnccn3)n2-c2ccccc2)cc1	-16%
Cc1ccc(NS(=O)(=O)c2cc(C(=O)NCc3cccnc3)ccc2C)cc1	4%
CCOC(=O)C1=C(c2ccccc2)NC(=O)NC1c1cccc(OC)c1OC (stereo not drawn)	-2%
O=C(Nc1ccc(Cl)c(-c2nc3cc(Cl)ccc3o2)c1)c1cc2ccccc2o1	-14%
CN(C)c1ccc(C(=O)OCc2ccccc2)cc1	-4%
O=C(C1=COCCO1)N1CCN(S(=O)(=O)c2cccc(Cl)c2Cl)CC1	8%
COc1ccc2nc(NC(=O)c3nc(SCc4ccccc4F)ncc3Cl)sc2c1	6%
Cc1c(C)n(Cc2ccccc2)c2ncnc(N)c12	2%
Cc1cccc(-n2c(-c3ccc(Br)o3)n[nH]c2=S)c1	-5%
O=S(=O)(NC(=NCc1ccccc1)c1ccccc1F)c1ccccc1	-4%
CCC(C)(C)NC(=O)C(c1ccccc1)N(Cc1cccs1)C(=O)Cn1nnc2ccccc21 (stereo not drawn)	-4%
CC(=O)Nc1ccc(SCC(=O)c2cc(C)n(-c3ccccc3)c2C)cc1	-4%
CCCCn1c(N)c(N(CC(C)C)C(=O)C2CCN(S(=O)(=O)c3ccc(Cl)cc3)CC2)c(=O)[nH]c1=O	-2%
O=C(COC(=O)c1cc2ccccc2oc1=O)c1cccc([N+](=O)[O-])c1	-14%
COc1ccccc1CNS(=O)(=O)c1ccc2c(c1)NC(=O)C(C)C(=O)N2 (stereo not drawn)	-9%
CC1CCN(CCn2c(=S)[nH]c3cc4c(cc3c2=O)OCO4)CC1	4%
O=C(COC(=O)c1cncc(Br)c1)NCC1CCCO1 (stereo not drawn)	15%
Cc1cc(F)ccc1NC(=O)c1cnccn1	2%
O=[N+]([O-])c1cccc(C=NNC(=S)NC23CC4CC(CC(C4)C2)C3)c1	-16%
Cc1c(NC(=O)c2ccc(NS(=O)(=O)c3cccc([N+](=O)[O-])c3)cc2)c(=O)n(-c2ccccc2)n1C	-12%
CCc1c(OC(C)=O)c2ccccc2n(C)c1=O	-10%
O=C(Cc1cccs1)NCc1ccc(F)cc1	-17%
CCCCn1c(-c2ccco2)n[nH]c1=S	-9%
CCOc1ccc(C(C)=O)cc1CSc1nnc(-c2cccs2)n1CC1CCCO1 (stereo not drawn)	-22%
Cc1oc2ccc(O)c(CN3CCOCC3)c2c1C(=O)Nc1ccc(C(C)C)cc1	11%
O=C(Nc1nc2ccc(Cl)cc2s1)C1CC1	-15%
C[C@]12CCC(=O)C=C1CCC1C3CC[C@](O)(C(=O)CO)[C@@]3(C)CC3OC312 (stereo partly drawn)	0%
CS(=O)(=O)N1CCN(Cc2ccc(C(F)(F)F)cc2)CC1	-3%
O=C1CC(C(=O)NCc2ccccc2)N=C(N2CCCCC2)N1 (stereo not drawn)	-2%
O=C(CCCN1C(=O)/C(=C/c2cccs2)SC1=S)NNC(=O)c1ccncc1	-2%
CCOC(=O)N1CCN(S(=O)(=O)c2ccc(C(=O)N(CCN(CC)CC)c3nc4ccc(C)cc4s3)cc2)CC1	-7%
CCc1nccn1CCC(=O)N1CCCC(N2CCN(c3cccc(Cl)c3)CC2)C1 (stereo not drawn)	1%
COc1cccc(C(=O)NCC2CCN(c3ccc(S(=O)(=O)N4CCOCC4)cc3)CC2)c1	-1%
O=S(=O)(c1ccc(N2CCN(c3ccc(F)cc3)CC2)cc1)N1CCCC1	16%
COc1ccc(CN2C(=O)c3ccccc3C2=O)cc1	8%
CCNc1ncc2nc(C)c(=O)n(CCc3ccccc3)c2n1	-5%
CCOc1ccc(C(=O)Nc2ccccc2N2CCCC2)cc1	4%
COc1ccc(-c2[nH]ncc2CN2CCC(C(=O)N3CCOCC3)CC2)c(F)c1	-2%
Cc1cccc(NS(=O)(=O)c2ccc3c(c2)CCCN3C(=O)C2CCC2)c1C	6%
COc1ccc(C(=O)Nc2cccc(C(=O)Nc3cc(C)ccn3)c2)cc1	11%
COc1cccc(/C=C/C(=O)OCC(=O)c2c[nH]c3ccccc23)c1	3%
O=C(O)c1ccc(N/N=C/c2ccc(-c3cc(Cl)ccc3Cl)o2)cc1	?

Next records
SMILES	VDR inhibitor
Cc1ccc(OCCn2c(-c3ccc(Br)cc3)nc3ccccc3c2=O)cc1C	-10%
O=C(O)c1ccc2c(=O)n3c(nc2c1)/C(=C/c1ccc(Cl)c([N+](=O)[O-])c1)CC3	-17%
CC1(C)CC(=O)C(C=NCCN2CCN(C(=O)c3ccccc3)CC2)=C(O)C1	-2%
Cc1cccc(N(CC(=O)NC2CCCCC2)C(=O)c2csnn2)c1	17%
Cc1cc(C(=O)N2CCN(c3ccccn3)CC2)no1	-2%
CCOc1ccc(-c2nnc(SCC(=O)Nc3ccccc3C(F)(F)F)o2)cc1	11%
CCc1ccc(OCC(=O)Nc2cccc3c2CCCC3)cc1	1%
O=c1[nH]c(CN2CCN(S(=O)(=O)c3ccc4c(c3)OCCO4)CC2)nc2sc3c(c12)CCCC3	-19%
O=C(NCCc1c[nH]c2ccccc12)c1cnc2n(c1=O)CCS2	-7%
Cc1cc(C(=O)OCCN2C(=O)c3ccccc3C2=O)c2ccccc2n1	22%
Cc1ccc(-n2nnc(-c3nsc(NC(=O)c4ccccc4C)n3)c2C)cc1Cl	2%
Cn1nc(-c2ccccc2)cc1NC(=O)CCCC(=O)O	4%
CCOC(=S)SCc1cn2cccc(C)c2n1	17%
Cn1nnc(NC(=S)NC(=O)c2cccs2)n1	-2%
Cc1cc(C)c(OCC(=O)N(Cc2ccccc2)C2CCS(=O)(=O)C2)c(C)c1 (stereo not drawn)	-1%
Cc1cc(C(=O)NP(=O)(N2CCOCC2)N2CCOCC2)c(C)n1-c1ccc(N(C)C)cc1	?
COc1ccc(S(=O)(=O)NCC2CCCO2)cc1Cl (stereo not drawn)	1%
COC(=O)c1sc(NC(=S)NC(=O)c2ccccc2Cl)nc1C	-7%
Cc1cccc(N2CCN(C(=O)c3cc4c(=O)[nH]c5ccc(C)cc5c4s3)CC2C)c1 (stereo not drawn)	-8%
O=c1[nH]c(N2CCN(c3ccccc3)CC2)nc2c1CCCC2	19%
COc1ccc(-n2nc(C(=O)NCC(=O)N3CCCCCC3)c3ccccc3c2=O)cc1	1%
COc1ccc(CNC(=O)CN(Cc2ccccc2OC)C(=O)c2csnn2)cc1	7%
CCN(c1ccc(NC(=O)COC(=O)c2ccc(S(=O)(=O)N3CCCC3)cc2)cc1)C(C)C	-2%
CCN1CCN(CC(=O)c2cc(Cl)ccc2Cl)CC1	6%
Cc1c(F)cccc1NS(=O)(=O)c1cccs1	7%
c1ccc(-c2cnc(C3CCCCC3)o2)cc1	-24%
CN1CCN(C(=O)C2(NC(=O)Nc3cccc(F)c3)CCCCC2)CC1	-8%
CC1=NNC(=O)C1CCC(=O)N/N=C/c1ccco1 (stereo not drawn)	-9%
Cn1c(Cc2csc(N)n2)nnc1SC/C=C/c1ccccc1	-5%
CN1CCN(c2nc3ccccn3c(=O)c2/C=C(\C#N)S(=O)(=O)c2ccccc2)CC1	-12%
COc1ccc(CNC(=O)c2cnn(-c3ccc(C)cc3)c2C2CCN(C(=O)OC(C)(C)C)CC2)cc1	3%
COc1cccc(CNC(=O)CN2C(=O)N(c3ccc(C)cc3C)S(=O)(=O)c3ccccc32)c1OC	-5%
CCOC(=O)c1c(NC(=O)CN2CCN(C(=O)C3CCCO3)CC2)sc(C)c1C (stereo not drawn)	-2%
N#Cc1ccc(CSc2nnc(NC(=O)c3ccc(=O)[nH]c3)s2)cc1	9%
Cc1ccc(N=C2CSC(=O)N2)cc1	1%
CCn1c(SCC(=O)OC)nnc1-c1c[nH]c2ccccc12	-1%
Nc1cccc2c3c(oc12)CCCC3	-5%
CCOc1ccc(NS(=O)(=O)c2ccc3ncsc3c2)cc1	-8%
Cc1ccccc1NC(=O)CSc1nc(-c2ccccc2)cc(=O)[nH]1	11%
COc1ccc(-c2c(C)c3cc(OC(=O)N4CCOCC4)ccc3oc2=O)cc1	0%
CC(C)CN1CC[C@@]2(CCCN(C(=O)c3cc(C(F)(F)F)cc(C(F)(F)F)c3)C2)C1	?
Cc1ccccc1NC(=O)CCOc1ccccc1	-23%&-7%
CCN(CC)C(=O)[C@H]1C[C@H](CC(=O)NCC23CC4CC(CC(C4)C2)C3)C(=O)N2CCc3c([nH]c4ccc(Cl)cc34)[C@]12C	-19%
O=C(Nc1ccc(F)cc1)C1CCCN(S(=O)(=O)c2cccc3cccnc23)C1 (stereo not drawn)	-14%
Cc1c(C)c2cc(Cl)c(O)c(CN3CCN(C)CC3)c2oc1=O	1%
CCOC(=O)CSc1nc2ccc(NC(=O)COc3ccc(F)cc3)cc2s1	4%
C[C@@]12CCC[C@H]1C1CC[C@H]3C[C@H](O)CC[C@]3(C)C1CC2 (stereo partly drawn)	4%
CCOc1ccc(C(=O)NNC(=O)c2cc(C)oc2C)cc1	5%
CCOC(=O)C1CCN(S(=O)(=O)c2ccc(-n3cnnn3)c(C)c2)CC1	-4%
Cc1ccc(C(=O)NCCCNCCCN(C)C)cn1	43%[activator]

2 compounds drawn at random from those above, as already listed:
SMILES	VDR inhibitor
CC(C)CN1CC[C@@]2(CCCN(C(=O)c3cc(C(F)(F)F)cc(C(F)(F)F)c3)C2)C1	?
O=C(Nc1ccc(F)cc1)C1CCCN(S(=O)(=O)c2cccc3cccnc23)C1 (stereo not drawn)	-14%

3 entries out of the list, ordered by number of heavy atoms, lowest first:
SMILES	VDR inhibitor
Cc1c(C)c2cc(Cl)c(O)c(CN3CCN(C)CC3)c2oc1=O	1%
O=C(Nc1ccc(F)cc1)C1CCCN(S(=O)(=O)c2cccc3cccnc23)C1 (stereo not drawn)	-14%
CCN(CC)C(=O)[C@H]1C[C@H](CC(=O)NCC23CC4CC(CC(C4)C2)C3)C(=O)N2CCc3c([nH]c4ccc(Cl)cc34)[C@]12C	-19%

(listing goes on)
SMILES	VDR inhibitor
Cc1ccc(OCCn2cnc(Cl)c2Cl)cc1	-13%
CN1CCC(N(C)CC(C)(C)NS(=O)(=O)c2ccccc2)CC1	6%
Cc1nn(-c2ccc(N3CCOCC3)nn2)c(C)c1CCC(=O)Nc1ccccc1	14%
CC1=CC(C)(C)N(C(=O)c2ccccc2)c2ccc(C)cc21	0%
CCOc1ccc(-c2cc(NC(=O)c3ccccc3)c(C(=O)OC)s2)cc1	9%
COc1cccc(NC(=O)CN2C(=O)NC(c3ccccc3)(c3ccccc3)C2=O)c1	5%
CC(=O)N1CCN(C(=O)CCNC(=O)c2ccc(Br)cc2)CC1	-4%
